Rce1 inhib – blocks yeast Ras-converting enzyme | calls only | Q03530 | yeast membranes, quenched prenylated peptide cleavage fluorescence | hit rate 0.27% among 290,000 | AID 2563;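 active = fall in fluorescence gain of 50% or more versus controls, with final raw signal at or below 3038400; inconclusive = same 50% fall but final raw signal above 3038400; inactive = fall in fluorescence gain under 50%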;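 note: plate controls were neutral control wells for no effect and wells lacking membranes for full effect; tested at 10 µM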
CSC inhib – blocks cancer stem cells | cancer stem cell-like cells viability, luminescence | inhibition, % at 7.5 µM | hit rate 1.1% among 300,000 | AID 2717;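 active = mean at 75% or more and at least half the replicates too; inconclusive = mean and replicates disagree; tested in HMLE shEcad cells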;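 note: 0% = median of negative and 100% = median of positive control wells; the first replicate is given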
PABP polyA inh – blocks human PABP binding to poly(A) RNA | fluorescence polarization | inhibition, % at 35 µM | P11940 | hit rate 1% among 290,000;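 active = 50% or more with normal probe brightness, or confirmed in later tests; inconclusive = above 50% with abnormal brightness, or retests that disagree; inactive = below 50% or failed in later tests; about a fifth of its hits are not listed in these tables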;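 note: calls also rest on retests at 20 µM and on dose response follow-up; controls were probe without protein and protein plus probe with vehicle; some compounds called inactive have numbers as strong as hits; many hits fall short of the cut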
Target sequence (P11940 whole entry, looked up): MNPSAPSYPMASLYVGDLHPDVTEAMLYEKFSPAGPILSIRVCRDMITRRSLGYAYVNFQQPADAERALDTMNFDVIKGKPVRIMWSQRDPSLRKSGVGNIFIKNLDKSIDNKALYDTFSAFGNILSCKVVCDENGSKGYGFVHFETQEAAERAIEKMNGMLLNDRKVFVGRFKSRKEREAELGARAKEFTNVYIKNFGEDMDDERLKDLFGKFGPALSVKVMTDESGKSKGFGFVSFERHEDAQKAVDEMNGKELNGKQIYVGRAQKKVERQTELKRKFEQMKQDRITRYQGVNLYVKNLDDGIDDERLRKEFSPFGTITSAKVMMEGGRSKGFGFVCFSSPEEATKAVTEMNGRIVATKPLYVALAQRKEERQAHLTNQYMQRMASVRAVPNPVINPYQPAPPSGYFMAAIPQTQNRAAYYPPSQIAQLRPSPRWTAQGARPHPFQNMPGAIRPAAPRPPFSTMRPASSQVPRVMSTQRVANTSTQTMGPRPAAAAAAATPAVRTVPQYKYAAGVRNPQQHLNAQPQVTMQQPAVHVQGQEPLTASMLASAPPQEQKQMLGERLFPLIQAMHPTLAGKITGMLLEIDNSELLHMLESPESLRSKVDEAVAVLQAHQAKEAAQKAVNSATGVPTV
eIF4H inh – inhibitors of RNA binding by human eIF4H; eIF4H fluorescence polarization binding assay; inhibition, % at 35 µM; hit rate 0.94% among 290,000;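 active = 50% or more with normal probe brightness, or confirmed in later tests; inconclusive = above 50% with abnormal brightness, or retests that disagree; inactive = below 50% or failed in later tests; about a fifth of its hits are not listed in these tables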;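 note: calls also rest on retests at 20 µM and on dose response follow-up; 0% = protein and probe with vehicle and 100% = probe without protein; strong numbers were not always called active; many hits fall short of the cut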
UUG fidelity – yeast start codon fidelity modulation. activity score, % at 18.7 µM. hit rate 0.13% among 350,000. AID 602363. S. cerevisiae UUG-firefly luciferase reporter, luminescence/redox ratio;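 active = replicate mean at a twofold rise or more, about +100% in these data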;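 note: firefly luciferase made from a UUG start codon reports start codon fidelity; reporter light over untreated wells divided by growth signal over untreated wells; some hits fall short of that in this replicate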
Env fusion inh – HIV envelope-mediated fusion inhibition | hit rate 1.1% among 360,000 | HeLa-JRFL Env/CEM21 cell fusion, luciferase | AID 651610 | inhibition, % at 12.3 µM;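 active = mean replicate inhibition score of at least 50 and every replicate individually at or above 50; inconclusive = only one of the two criteria met; inactive = mean below 50 and not all replicates reaching 50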;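 note: 0% = plate neutral controls and 100% = maraviroc near 300 nM; one replicate is shown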
MT1-MMP act inh – blocks activation of human MT1-MMP; P50281; HT1080 RFP-PRO-GFP cells, GFP/RFP ratio fluorescence, overnight; percent of plate control window, DMSO zero; GFP/RFP ratio change, % at 20 µM; hit rate 0.061% among 360,000;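 active = GFP/RFP ratio change of at least 30% with cell ATP level not reduced by more than half and red fluorescence within 50% of control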; note: strong numbers were not always called active
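Assay system: HT1080 RFP-PRO-GFP cells | Dosing: 20 µM single dose, 1% DMSO | Incubation: Cells overnight before dosing, compound overnight, 37 °C, 5% CO2 | Evaluation: GFP/RFP fluorescence ratio | Control set: DMSO-only wells and HT1080 RFP-L50D-GFP cell wells as references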
eIF4H inh retest – recorded beside eIF4H inh, whose call it bears; inhibition, %; compound at 20 µM; confirmation average;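 mean of two retest wells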
PABP polyA inh retest – also measured in PABP polyA inh; calls as there; inhibition, %; compound at 20 µM; confirmation repeats;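 mean of two retest wells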
MT1-MMP act inh RFP – further read-out of MT1-MMP act inh, marked with its call; RFP signal change, %; measured here: RFP expression control read;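 0 = vehicle wells; hits needed this value within 50% of zero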
An asterisk follows results filed as active; i = inactive; ? = inconclusive; / = no result given; & = joins results of further samples. An excerpt; the hit share may differ from the screen's.

SMILES | Rce1 inhib | CSC inhib | PABP polyA inh | eIF4H inh | UUG fidelity | Env fusion inh | MT1-MMP act inh | MT1-MMP act inh RFP | others
CNC(=O)c1csc(-c2ccc(Cl)cc2)n1 | i | -4 | -12 | -7 | / | -22 | 5 | 6
CC1CCN(c2nc(CN3CCCCC3)nc3scc(-c4ccccc4)c23)CC1 | i | 64 | -1 | 5 | 3 | 11 | -5 | -7
Cc1ccc(/C=C2\SC(=S)N(CC3CCCO3)C2=O)o1 (stereo not drawn) | i | 13 | 8 | 22 | / | 5 | 15 | 37
CCC(=O)N1c2ccc(S(=O)(=O)N3CCN(c4ccccc4Cl)CC3)cc2CC1C (stereo not drawn) | i | 0 | -7 | -11 | -1 | -11 | -1 | -7
Cc1ccc(N(CC(=O)NCc2ccncc2)S(C)(=O)=O)cc1Cl | i | 0 | -1 | -1 | -2 | / | / | /
CSc1ccc(C(=O)C2CCCN(C(=O)CCn3cncn3)C2)cc1 (stereo not drawn) | i | -13 | 5 | -10 | -19 | 7 | -3 | 4
COc1ccc(COc2cccnc2N)cc1 | / | -16 | 16 | 4 | -19 | -8 | 1 | -1
C=CCNCCCOc1ccc(C(C)(C)c2ccccc2)cc1 | i | 51 | 17 | 12 | 7 | 10 | 0 | 0
O=C(OCC(=O)N1CCCC1=O)c1cccc([N+](=O)[O-])c1 | i | 6 | 4 | 3 | 1 | / | 1 | 1
COc1ccc(C2C(C(=O)N3CCN(c4ccccn4)CC3)CCC(=O)N2c2cc(OC)c(OC)c(OC)c2)cc1 (stereo not drawn) | i | 8 | -11 | -25 | -6 | 4 | -3 | 2
COc1ccc(CCn2c(C)cc(C(=O)CSc3nnc(N)s3)c2C)cc1 | i | 6 | 5 | 8 | -9 | / | -1 | -4
O=C(Nc1ccc2c(c1)OCO2)C(c1ccc(Cl)cc1)N1CCN(C(=O)c2ccco2)CC1 (stereo not drawn) | i | 16 | -2 | -2 | 12 | -54 | -2 | -4
O=C(CN1CCN(Cc2ccc(Cl)cc2)CC1)N/N=C/c1cccs1 | i | -1 | -6 | 3 | -4 | 9 | 0 | -4
Cc1ccc(Nc2cc(C)c3ccc(O)cc3n2)cc1C | i | 86* | -20 | 38 | 16 | -53 | -6 | -6
COc1ccc(NC(=O)[C@@H](NC(=O)N2C[C@H]3C[C@@H](C2)c2cccc(=O)n2C3)C(C)C)cc1OC | i | 3 | 3 | -4 | -8 | / | 3 | 6
CC(C)(C)c1cc2cccnc2n1Cc1ccccc1 | i | -4 | 5 | -12 | -17 | / | -2 | 2
CC(=O)c1cccc(NC(=O)N2CCCC2C(=O)Nc2ccccc2C)c1 (stereo not drawn) | i | -3 | -5 | -4 | -6 | / | 5 | 2
COc1ccc(-c2noc(CCC(=O)N3CCN(c4ccccc4F)CC3)n2)cc1 | / | / | / | / | 1 | 19 | 1 | 5
CC(=O)N(c1ccc(C)cc1)c1nc(C)cc(C)c1C#N | i | -3 | 52 | 36 | -9 | -8 | 1 | 5 | eIF4H inh retest=-5;PABP polyA inh retest=6
Fc1ccc(N2CCN(Cc3cn[nH]c3-c3ccccc3)CC2)cc1 | i | -11 | -2 | -13 | / | 9 | 1 | -2
CCOC(=O)c1cc2c(ccn2C)n1CC(=O)N1CCN(c2ccc(F)cc2)CC1 | i | / | 18 | 11 | / | / | 2 | 3
S=C(NCc1ccco1)N1CCN(Cc2ccc(Cl)cc2Cl)CC1 | i | 22 | -3 | -9 | -20 | / | -1 | -8
CCN(CC)Cc1cc(CCNC(=O)c2ccc(Cl)cc2)ccc1O | i | 2 | -9 | -8 | -10 | 4 | 4 | 0
Cc1cc(N/N=C/c2cccc(F)c2)nc(NCc2ccccc2)n1 | i | 36 | 1 | -7 | / | 6 | -5 | -7
CC(=O)Nc1ccc(-c2ccnc3c2CC(C)(C(=O)Nc2ccc(F)c(Cl)c2)O3)cc1 (stereo not drawn) | / | / | / | / | -9 | 0 | 6 | -1
CCOC(=O)c1cc(-c2ccc(F)cc2)nc2c1c(=O)[nH]c(=O)n2Cc1ccccc1 | ? | 4 | 4 | -20 | -14 | -6 | 0 | 5
COC1=C(Br)C(=O)c2nc(C)ccc2C1=O | / | / | / | / | -4 | 37 | 1 | 2
N#Cc1ccc(NC(=O)C2=COCCO2)cc1 | / | / | / | / | -23 | -11 | 4 | 6
CCOC1=C2CN(S(=O)(=O)c3ccc(C)cc3)[C@H](c3ccccc3)C[C@H]2n2c(=O)n(-c3ccccc3)c(=O)n2C1 | / | / | / | / | -9 | -34 | 5 | 6
CN(C)CCCNc1ncnc2c1cnn2Cc1ccccc1Cl | i | / | 9 | 4 | -7 | 2 | 0 | 0
Cc1ccc(NS(=O)(=O)c2ccc3c(c2)NC(=O)CCS3)cc1C | i | 7 | 6 | 0 | -3 | 13 | -9 | -2
O=S(=O)(Nc1c(O)ccc2ccccc12)c1ccc(F)cc1 | i | 13 | / | / | / | -26 | 7 | 14
C[C@@H]1C(=O)O[C@H]2C[C@@]34[C@H]5C[C@@H](C(C)(C)C)[C@]36[C@@H](OC(=O)[C@@H]6O)O[C@@]4(C(=O)O5)[C@]21O | i | -8 | 3 | 8 | 5 | 0 | 0 | 2
COc1ccc([C@@H]2[C@@H]3C(=O)N(C(C)(C)C)C(=O)[C@@H]3[C@]3(C)C(=O)N(c4ccc(C)cc4)C(=O)N23)cc1 | i | -3 | 3 | -4 | -5 | 17 | -2 | 0
Cc1cc(F)c(F)c(C(=O)N2C(C)CCCC2C)c1Cl (stereo not drawn) | i | 1 | -5 | 0 | / | 17 | -1 | 2
N#Cc1ccccc1NC(=O)Nc1ccccc1 | i | -5 | -3 | -2 | / | 9 | 2 | 8
O=C(NCc1ccco1)c1ccc(C(F)(F)F)cc1 | i | -5 | -22 | 6 | -8 | 2 | 3 | 2
O=C(NC1CCCCC1)C(c1ccc2ncccc2c1)N(Cc1ccc(F)cc1)C(=O)c1ccc2c(c1)OCCO2 (stereo not drawn) | i | 21 | -19 | -3 | -11 | / | -14 | -11
O=C(CN1CCCN(Cc2ccc(F)cc2Cl)C1=O)NC1CCCCCC1 | i | / | 1 | 0 | -4 | / | 0 | -4
O=C(O)c1ccccc1S(=O)(=O)NCC(O)COc1ccc(Br)cc1 (stereo not drawn) | i | 1 | 15 | -5 | -6 | -25 | 1 | 10
COc1ccccc1/C=N/NC(=Nc1ccc(C)cc1)c1nc2ccccc2s1 | i | -8 | -7 | -11 | / | / | / | /
COc1ccc(C(=O)NCC(=O)OCC(=O)N2CCc3ccccc32)cc1 | i | -7 | 8 | 3 | / | -11 | -2 | 2
CC1=CC(C)(C)NC(=S)N1c1cccc(C)c1 | i | 0 | -2 | 6 | -29&-24 | / | 1&5 | -5&1
CCOc1ccc(-c2cc(CCCC(=O)NCc3ccc(C)cc3)no2)cc1 | i | 3 | 3 | 2 | -14 | 72 | 1 | -3
O=C(O)CCCn1cc(NC(=O)c2ccc(F)cc2)cn1 | i | 3 | 15 | 4 | / | 15 | 3 | 5
C=CCN(CC=C)C(=O)C1CCN(S(=O)(=O)c2ccc(N3CCCC3=O)cc2)CC1 | i | -16 | 6 | 0 | -8 | 3 | 2 | -5
COc1ccccc1C(=O)C1CCCN(C(=O)c2cccc(-n3cccn3)c2)C1 (stereo not drawn) | i | -7 | 3 | 1 | / | 18 | -2 | -4
CC12CCCC[C@@H]1CCC1C2CCC2(C)C1CC[C@@]2(O)CNCCO (stereo partly drawn) | i | -10 | -1 | -3 | 5 | -7 | -7 | -1
Cc1ccc(N2C(=O)[C@@H]3[C@H](C2=O)C2c4ccccc4C=CN2[C@@H]3C(=O)c2ccco2)c(C)c1 (stereo partly drawn) | i | -11 | 23 | 70 | -57 | / | -21 | 6 | eIF4H inh retest=40;PABP polyA inh retest=25
O=C(NCC1CCCN(C2Cc3ccccc3C2)C1)c1cccs1 (stereo not drawn) | i | 12 | 5 | 6 | -16 | -1 | -6 | 3
COC(=O)c1ccc2c(c1)N(C)CCS2 | i | -5 | -1 | -1 | 0 | -7 | 1 | 2
C=CCn1c(=N)c(C(=O)NCCCOC)cc2c(=O)n3cccc(C)c3nc21 | ? | -5 | -4 | -11 | -1 | / | -3 | 0
CCOC(=O)N=Nc1c(O)n(CC(=O)OC)c2ccccc12 | i | 0 | -15 | 0 | -15 | 10 | 0 | -3
COC(=O)Cc1csc(NC(=O)CSc2nnc3ccccn23)n1 | i | -6 | -8 | -1 | / | -17 | 7 | 7
O=C(CN(C(=O)CNS(=O)(=O)c1ccc(F)cc1)c1cccc(F)c1)NCC1CCCO1 (stereo not drawn) | i | -10 | 2 | 2 | -5 | 9 | -2 | 3
Cc1cc(NC(=O)CCC(=O)N(Cc2ccco2)C(C(=O)NCC2CCCO2)c2ccncc2)no1 (stereo not drawn) | i | -2 | 1 | -5 | / | 16 | 2 | 5
Cc1ccc(C(=O)N/C(=C\c2ccccc2)C(=O)OCc2ccccc2)cc1 | i | -11 | -8 | 2 | / | / | 4 | -1
O=C(CN(Cc1ccccc1Cl)C(=O)c1csnn1)NC1CCCC1 | i | -2 | -8 | -10 | -13 | -8 | -3 | 2
Cc1ccc(CNC(=O)CCC(=O)N2CC(C)Oc3ccc(Cl)cc32)cc1 (stereo not drawn) | i | 9 | -1 | 0 | -2 | -5 | -6 | -2
O=C1CSC(=S)N1/N=C/c1c(F)cccc1F | i | / | 0 | -11 | -11 | -2 | 4 | 11

Gathered by group, the entries above containing an aryl methoxy group (nine)
SMILES | Rce1 inhib | CSC inhib | PABP polyA inh | eIF4H inh | UUG fidelity | Env fusion inh | MT1-MMP act inh | MT1-MMP act inh RFP | others
COc1ccc(COc2cccnc2N)cc1 | / | -16 | 16 | 4 | -19 | -8 | 1 | -1
COc1ccc(C2C(C(=O)N3CCN(c4ccccn4)CC3)CCC(=O)N2c2cc(OC)c(OC)c(OC)c2)cc1 (stereo not drawn) | i | 8 | -11 | -25 | -6 | 4 | -3 | 2
COc1ccc(CCn2c(C)cc(C(=O)CSc3nnc(N)s3)c2C)cc1 | i | 6 | 5 | 8 | -9 | / | -1 | -4
COc1ccc(NC(=O)[C@@H](NC(=O)N2C[C@H]3C[C@@H](C2)c2cccc(=O)n2C3)C(C)C)cc1OC | i | 3 | 3 | -4 | -8 | / | 3 | 6
COc1ccc(-c2noc(CCC(=O)N3CCN(c4ccccc4F)CC3)n2)cc1 | / | / | / | / | 1 | 19 | 1 | 5
COc1ccc([C@@H]2[C@@H]3C(=O)N(C(C)(C)C)C(=O)[C@@H]3[C@]3(C)C(=O)N(c4ccc(C)cc4)C(=O)N23)cc1 | i | -3 | 3 | -4 | -5 | 17 | -2 | 0
COc1ccccc1/C=N/NC(=Nc1ccc(C)cc1)c1nc2ccccc2s1 | i | -8 | -7 | -11 | / | / | / | /
COc1ccc(C(=O)NCC(=O)OCC(=O)N2CCc3ccccc32)cc1 | i | -7 | 8 | 3 | / | -11 | -2 | 2
COc1ccccc1C(=O)C1CCCN(C(=O)c2cccc(-n3cccn3)c2)C1 (stereo not drawn) | i | -7 | 3 | 1 | / | 18 | -2 | -4

From PubChem BioAssay
